Screens: PubChem BioAssay, National Center for Advancing Translational Sciences (NCATS)
gsp agonist: qHTS for Agonist of gsp, the Etiologic Mutation Responsible for Fibrous Dysplasia/McCune-Albright Syndrome: qHTS. gsp mutant cells, cAMP HTRF, 30 min; control for the full effect not named in the record. Potency, µM (titrated, usually from 76.9 µM), for the others: at the top dose activation (cAMP increase), actives largely listed as activators. 340,000 compounds, 0.13% hits; active = well fitted activation curve with a large enough effect; inconclusive = small, poorly fitted or top-dose-only effect, or another doubt; inactive = no such curve, though single readings can be large or run the other way; cell line not stated here;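 note: phosphodiesterase inhibitor Ro 20-1724 added with compounds to block cAMP breakdown; potency is the fitted concentration of half-maximal effect; nearly all actives have a fitted effect of over 60% in size; about a fifth of the inactives were tested at one dose only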
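Cells in DMEM/10% FBS with G418 were pretreated with compounds in DMSO plus […] (300 uM stock) for 30 min at 37C. cAMP was measured by HTRF (cAMP-d2 plus anti-cAMP antibody-K) after 30 min at room temperature.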
D2 ag: Beta-Arrestin HTS for Positive Allosteric Modulators of the Human D2 Dopamine Receptor: Agonists. D(2) dopamine receptor (Homo sapiens), P14416. DiscoveRx PathHunter D2 beta-arrestin, luminescence, 90 min; 100% = 57 uM dopamine signal. activation, % (no concentration beside the values). 360,000 compounds, 0.084% hits. AID 624465, 2012; in the data active = activation above about 40%; inconclusive = about 15% to 40%; inactive = below about 15%; note: compound concentration not given in the record; the text of the record calls up to 30% inactive
Target sequence (P14416 whole entry, looked up): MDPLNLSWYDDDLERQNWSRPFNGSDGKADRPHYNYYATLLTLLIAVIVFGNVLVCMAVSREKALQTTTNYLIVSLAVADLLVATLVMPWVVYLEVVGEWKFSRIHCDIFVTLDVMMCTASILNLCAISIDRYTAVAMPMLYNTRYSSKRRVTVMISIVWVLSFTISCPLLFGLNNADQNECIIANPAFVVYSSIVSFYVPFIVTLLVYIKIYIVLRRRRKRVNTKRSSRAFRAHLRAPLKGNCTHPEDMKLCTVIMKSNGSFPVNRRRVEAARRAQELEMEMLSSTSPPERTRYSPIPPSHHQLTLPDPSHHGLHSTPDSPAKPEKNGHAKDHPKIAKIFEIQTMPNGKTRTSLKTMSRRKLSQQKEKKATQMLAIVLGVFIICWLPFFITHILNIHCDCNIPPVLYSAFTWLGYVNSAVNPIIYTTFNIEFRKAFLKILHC
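DiscoveRx PathHunter D2 beta-arrestin cells (2,100/well) attached overnight, then compound-stimulated 90 min at 37 C in HBSS/10 mM HEPES/0.1% Tween-20 buffer; beta-galactosidase complementation read by luminescence after 1 h at ambient temperature. Dopamine 57 uM final (EC100) as control.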
ClpP mod: qHTS Assay for Activators of ClpP; Potency, µM (titrated, usually from 57.5 µM), for the others: top-dose activity change, negative = active; 340,000 compounds, 1.9% hits; purified B. subtilis ClpP, FRET peptide cleavage, 20 min; ATP-dependent Clp protease proteolytic subunit (Bacillus subtilis (strain 168)), P80244; active = well fitted falling curve with a large enough effect; inconclusive = small, poorly fitted or top-dose-only effect; inactive = no such curve, though single readings can be large or run the other way; note: potency is the fitted concentration of half-maximal effect; the source files actives as falling curves though it sought activators and does not explain the sign; nearly all actives have a fitted effect of over 65% in size; many hits overshoot -100%
Target sequence (P80244 whole entry, looked up): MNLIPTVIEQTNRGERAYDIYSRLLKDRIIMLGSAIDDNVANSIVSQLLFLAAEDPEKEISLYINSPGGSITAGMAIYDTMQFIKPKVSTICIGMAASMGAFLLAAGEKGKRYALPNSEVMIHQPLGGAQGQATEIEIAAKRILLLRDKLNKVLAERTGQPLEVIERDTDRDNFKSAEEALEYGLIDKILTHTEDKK
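Purified B. subtilis ClpP, 10 microg/mL final in Tris/HCl pH8 with KCl, BSA, glycerol and Tween-20, cleaved an Abz/nitrotyrosine-quenched decapeptide. Fluorescence (ex 320, em 430) was read at 0 and 20 min at room temperature. Delta was normalized to 5.8 microM ADEP and DMSO/no-enzyme controls.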
Menin MLL FP FL: qHTS Assay for Inhibitors Targeting the Menin-MLL Interaction in MLL Related Leukemias: Competition With Fluorescein Labeled MLL-derived Peptide; Fluorescence polarization, fluorescein-MLL peptide displacement from menin; FP activity change, % at 61.4 µM; 290,000 tested, under 10 active; AID 1766, 2009; inconclusive = falling polarisation curve, or a change in total fluorescence; inactive = total fluorescence flat and polarisation flat or rising; no compound was filed as active; the % refers to the polarisation; negative = inhibition;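 note: % of control where 0% means no effect; inhibitors lower the polarisation; unlabelled MLL peptide was the positive control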
PINK1 modulator: A Quantitative High throughput Screen to Identify Chemical Modulators of PINK1 Expression. PINK1 immunofluorescence, high-content cytometry, 24 h. AID 624263, 2012. 410,000 compounds, 0.2% hits. Potency, µM (highest dose often 76.6 µM), for inactives: at the highest dose activation (PINK1 increase), actives largely listed as activators; active = well fitted activation curve with a large enough effect; inconclusive = small, poorly fitted or top-dose-only effect; inactive = flat fitted curve, though single readings scatter; cell line not stated here;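 note: potency is the fitted concentration of half-maximal effect; % of control where 0% means no effect; nearly all actives have a fitted effect of over 65% in size; a mitochondrial uncoupler was the plate control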
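Stable cell line treated 24 h with compounds at 5 concentrations (CCCP controls), then fixed and immunostained for PINK1 plus nuclear and cell stains; PINK1 immunofluorescence quantified by laser-scanning microplate cytometry.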
Sfp PPTase inh: qHTS Assay for Inhibitors of Bacillus subtilis Sfp phosphopantetheinyl transferase (PPTase); Biochemical Sfp PPTase activity, qHTS; Potency, µM, without a hit: max response, negative = inhibition, most hits filed as inhibitors; 310,000 compounds, 3.5% hits; AID 1490, 2009; active = well fitted inhibition curve with a large enough effect; inconclusive = small, poorly fitted or top-dose-only effect, or another doubt; inactive = no such curve, though single readings can be large or run the other way;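 note: the enzyme is Sfp with the accession as filed and its product quenches rhodamine fluorescence; potency is the fitted concentration of half-maximal effect; 0% = enzyme reaction without inhibitor and -100% = no enzyme wells; top concentration of the series not given in the record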
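Step 1, compound plus 15 nM Sfp-PPTase, 15 min, room temperature. Step 2, add rhodamine-CoA (5 uM) and BHQ-2-YbbR (12.5 uM). Step 3, read 525/598 nm fluorescence at 0 and 30 min.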
gsp antagonist: qHTS for Antagonists of gsp, the Etiologic Mutation Responsible for Fibrous Dysplasia/McCune-Albright Syndrome: qHTS; gsp-mutant cells, cAMP HTRF, 30 min; control for the full effect not named in the record; Potency, µM (series often up to 76.9 µM), without a hit: at the top dose activity change, negative = inhibition, most hits filed as inhibitors; 340,000 compounds, 0.4% hits; AID 624288, 2012; active = falling curve of any shape with a large fitted effect; inconclusive = falling curve, mostly with a smaller effect; inactive = flat or rising curve; cell line not stated here;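 note: intracellular cAMP measured with PDE inhibitor Ro 20-1724 present during compound exposure; potency is the fitted concentration of half-maximal effect; % is set by controls: 0 for no effect and ±100 for the full control effect; nearly all actives have a fitted effect of over 65% in size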
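Measurement of cellular cAMP by homogeneous time-resolved fluorescence following a 30 min compound exposure at 37C. The PDE inhibitor […] was present throughout; the assay buffer was DPBS with 0.05% BSA and 0.005% Tween 20.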
* marks the source's active call; other numbers are inactive results; ? = inconclusive; . = no result given; & = joins results of further samples; [ ] = another dose, or the depositor's remark.

SMILES	gsp agonist	D2 ag	ClpP mod	Menin MLL FP FL	PINK1 modulator	Sfp PPTase inh	gsp antagonist
CN(C)c1ncc2nc(-c3cc(F)cc(F)c3)c(=O)n(Cc3ccc(F)cc3)c2n1	.	.	.	-3.2	-0.1%	20%	.
C=C1CCN(C(C)C(=O)O)S(=O)(=O)c2ccccc21 (stereo unspecified)	.	-4.6	-3.2%	2.1&6.2	-0.4%	7%&2%	-1%
O=C(CC12CC3CC(CC(C3)C1)C2)Nc1c(F)cccc1F	?	3.1	0.0%	2.0	1.1%	8%	6%
COc1ccc(OC)c(NC(=O)c2ccc(NS(=O)(=O)c3c(C)noc3C)cc2)c1	-17%	-3.1	1.4%	-0.2	-1.3%	23%	-32%
COc1cccc(-c2coc3c(C)c4oc(=O)c(CC(=O)O)c(C)c4cc23)c1	-7%[15.4 µM]	-3.0	-2.3%	8.5	-1.3%	-2%	-12%
COCCN(C(=O)CSc1nc(N)cc(=O)[nH]1)c1c(N)n(Cc2ccccc2)c(=O)[nH]c1=O	-3%[15.4 µM]	-3.5	.	.	0.1%	.	12%
Cc1ccc(/C(N)=N/OC(=O)C23CC4CC(CC(C4)C2)C3)cc1	-7%	0.5	0.7%	0.8	-1.2%	4%	-1%
COc1ccc2nc(NCc3ccc(OC)c(OC)c3OC)sc2c1	-44%[inhibitor]	0.2	.	.	1.0%	.	-7%
O=C(c1ccncc1)N1CCN(C(=O)c2cccs2)CC1	5%	-1.0	0.2%	-1.2	0.5%	15%	-8%
COc1ccc(C=O)cc1Cn1c(C)cc(C)c(C#N)c1=O	?	2.8	.	-0.3	6.4%	12%	-9%
COC(=O)c1ccc(C2C(C(C)=O)=C(C)Nc3ncnn32)cc1 (stereo unspecified)	-10%	-2.4	-3.3%	0.4	-1.0%	23%	12%
O=C(NCc1ccc2c(c1)OCO2)c1ccc(CS(=O)Cc2ccc(Cl)cc2)o1 (stereo unspecified)	-30%	-1.8	-0.7%	0.0	0.0%	6%	-10%
CC(C)Oc1cccc(C(=O)NC(=S)Nc2ccc(N3CCN(C)CC3)cc2)c1	15%	-2.5	3.0%	3.5	0.1%	71µM*	8%
Cc1nc2ccccc2c(=O)n1/N=C/c1ccc(OC(F)F)cc1	-7%[15.4 µM]	-3.6	-1.2%	-2.6	6.7%	9%	-1%
COc1ccc(NC2=CC(=O)CC(c3ccc(C)cc3)C2)c(OC)c1 (stereo unspecified)	-1%	-2.9	2.4%	.	-1.3%	.	-9%
COc1ccc(OC)c(NC(=O)c2ccc(NC3=NC4CS(=O)(=O)CC4S3)cc2)c1 (stereo unspecified)	0%	-4.2	0.5%	-0.3	-0.2%	2%	5%
CCCn1c(=N)n(CC(=O)c2ccco2)c2ccccc21	12%	-5.5	-3.8%	1.7	-0.1%[38.3 µM]	-20%	8%
c1ccc(CN(Cc2ccccc2)c2nn[nH]n2)cc1	?	-0.9	0.2%	-10	4.3%	0%	-2%
CC(=O)Nc1ccc(NC(=O)C2CCCN2S(=O)(=O)c2cccc(C(F)(F)F)c2)cc1 (stereo unspecified)	-7%	-6.6	0.7%	.	0.0%	6%	14%
O=C(Oc1cccc(NC2=NS(=O)(=O)c3ccccc32)c1)c1ccncc1	12%	-4.4	-1.4%	1.8	1.9%	7%	-2%
COc1ccccc1C(=O)N1C(CC(=O)Nc2ccc(C)c(C)c2)C(=O)NC2CCCCC21 (stereo unspecified)	-1%	-2.4	-0.1%	.	2.7%	10%	-7%
Cc1cc(C)c(C)c(S(=O)(=O)NCc2ccc(C(=O)NCC3CCCO3)cc2)c1C (stereo unspecified)	?	-3.7	-4.0%	.	-0.3%	5%	-6%
Cc1onc(-c2ccccc2)c1-c1ccnn1C(=O)NC(C)C	0%[15.4 µM]	0.0	1.4%	-1.2	-0.5%	2%	-3%
CC(=O)Nc1ccc(S(=O)(=O)N2CCCN(c3nc(C)cc(C)c3C#N)CC2)cc1	4%	-2.2	3.4%	.	0.8%	11%	-11%
CCCSCCCNC(=O)Cn1cc2c(n1)CCC(C)C2 (stereo unspecified)	26%	-0.3	2.0%	-1.9	1.0%	24%	3%
O=C(Nc1ccc(N2CCOCC2)cc1)C1(S(=O)(=O)c2ccccc2)CC1	-46%[inhibitor]	-1.2	-3.5%	-0.8	11%[38.3 µM]	-4%	4%
COc1ccc(CN(C)CC(=O)Nc2ccccc2C(F)(F)F)c(OC)c1	-6%	-4.4	0.9%	-0.4	4.1%	-44%	-15%
Cc1cccc(C)c1NC(=O)CNC(=O)c1ccc(COc2ccccc2)cc1	-9%	-2.4	-1.7%	.	13%	.	7%
COc1ccc(C(=O)Nc2ccccn2)cc1S(=O)(=O)N1CCOCC1	-25%	-2.9	0.7%	.	3.1%	9%	-4%
O=C(C1CCCO1)N1CCN(c2ncccn2)CC1 (stereo unspecified)	-19%	0.4	-26%	3.9	1.4%	14%	14%
CCCc1cc(=O)oc2c3c(cc(OCC(=O)NCc4ccccn4)c12)OC(C)(C)CC3	.	2.0	5.0%	-0.6	-0.1%	-4%	-8%
CC(=O)NC(CC(=O)OCC(=O)N1CCN(S(=O)(=O)c2ccc(C)cc2C)CC1)c1ccccc1 (stereo unspecified)	9%	-1.3	-3.4%	.	1.4%	.	6%
O=C(CN1CCOCC1)N/N=C/c1ccc(-c2ccc(C(=O)O)cc2)o1	-6%[15.4 µM]	-1.5	.	-1.0	-1.0%	9%	1%
CC(C)c1nc(SCC(=O)Nc2ccc(N(C)C)cc2)c2ccccc2n1	-36%[inhibitor]	-19	2.1%	2.3	4.9%	-7%	3%
O=Cc1ccc(C(=O)OCC(=O)NCCC2=CCCCC2)cc1	2%	-3.2	-0.2%	.	1.1%	.	4%
Cn1ccnc1Sc1ccc(/C=N/NC(=O)c2ccccc2O)cc1[N+](=O)[O-]	2%	-3.9	-2.7%	-2.3	1.0%	1%	?
COCCn1c(SCC(=O)Nc2ccc(S(=O)(=O)N3CCOCC3)cc2)nc2ccccc21	-31%[inhibitor]	-0.2	-0.1%	1.3	21%[38.3 µM]	11%	3%
O=C(c1ccc2c(c1)OCCO2)N1CCCC(CNS(=O)(=O)c2cccs2)C1 (stereo unspecified)	-20%	-1.8	-1.6%	-1.0	-1.2%	-12%	10%
Cc1ccc(-n2nnnc2SCC(=O)NC(=O)Nc2ccc3c(c2)OCCO3)cc1	?	-3.1	0.4%	6.8	.	-17%	-1%
COc1ccc(CCNC(=O)c2cc(-c3ccccc3)c(N3CCOCC3)s2)cc1OC	4%	2.3	-2.7%	.	0.2%	.	?
Cc1cccc(CN2CCC(n3nccc3NC(=O)c3ccccc3C)CC2)n1	4%	-4.6	-12%	-6.4	3.2%	2%	-7%
O=C(NC(=S)Nc1ccc(Cc2ccncc2)cc1)c1ccc(F)cc1	3%	-6.2	-0.6%	-1.2	9.6%	50µM*	?
O=S(=O)(c1cccs1)N1CCN(c2ccc(O)cc2)CC1	-2%[15.4 µM]	1.1	.	-0.8	-1.8%	?	-7%
Cc1ccc(S(=O)(=O)N2CCN(C(=O)c3nn(C(C)C)c(=O)c4ccccc34)CC2)cc1C	11%	-1.9	-20%	-0.4	2.4%	-4%	-10%
Cc1oc2c(cc(NS(=O)(=O)c3ccc(C(C)C)cc3)c3ccccc32)c1C(=O)O	-49%[inhibitor]	4.8	-1.0%&-6.4%	?	1.2%&-1.6%	-8%	-20%
O=C(CSc1cccc[n+]1[O-])C12CC3CC(CC(C3)C1)C2	16%[15.4 µM]	-2.1	.	4.5	-1.2%	?	12%
Cn1c(SCC(=O)NNC(=O)Nc2ccccc2)nnc1-c1ccccc1	-1%	2.2	.	0.7	0.3%	13%	-8%
CN(C(=O)COC(=O)c1ccc(=O)n(Cc2ccccc2)n1)C1CCS(=O)(=O)C1 (stereo unspecified)	-7%	-3.7	1.1%	.	-0.4%	.	9%
O=C(NS(=O)(=O)c1ccc(Cl)s1)c1ccccc1	6%	-3.8	3.2%	1.3	-1.2%	20%	0%
Cc1ccc[n+](CC(=O)c2ccc(NC(=O)c3ccccc3)cc2)c1	-3%	-1.9	1.7%	-3.6	3.0%	19%	1%

Other records.
SMILES	gsp agonist	D2 ag	ClpP mod	Menin MLL FP FL	PINK1 modulator	Sfp PPTase inh	gsp antagonist
CN(C)c1ncc2nc(-c3cc(F)cc(F)c3)c(=O)n(Cc3cccs3)c2n1	.	.	.	?	20%	-17%	.
O=C(Cn1c(=O)oc2cc(S(=O)(=O)N3CCCC3)ccc21)N1CCN(c2ccccn2)CC1	3%	-2.7	4.2%	-3.4	3.7%	12%	-12%
O=C(O)c1ccc(NS(=O)(=O)c2ccc(N3C(=O)CCC3=O)cc2)cc1	29%	-5.5	.	3.7	-0.3%	11%	5%
CSc1c(CC(=O)Nc2ccc(F)cc2)n(Cc2ccccc2)c2ccccc12	?	0.9	-3.5%	0.9	13%	1%	-4%
Cc1ccccc1OCc1nc(-c2ccc(Br)o2)no1	-1%	1.3	1.0%	6.0	4.0%	-9%	-11%
COC(=O)c1cc(S(=O)(=O)NCC2CCN(CCc3ccc(OC)cc3)CC2)cn1C	?	-3.5	0.3%	0.0	-1.5%	6%	9%
NC(=O)COc1ccccc1/C=C1/SC(=O)N(CC(=O)N2CCc3ccccc3C2)C1=O	-19%	-4.8	-2.9%	5.4	2.2%	-11%	7%
Clc1ccc(SCCOCCN2CCCCCC2)cc1	?	-1.3	-1.8%	-2.0	0.2%	-18%	-2%
